Bioassay records (PubChem)
Mtb H37Rv: M. tuberculosis H37Rv growth inhibitors, H37Rv strain (AID 1626) | M. tuberculosis H37Rv growth inhibition; higher % means a stronger effect | inhibition, % at 10 µM; hits with a dose series show IC50 in µM | hit rate 0.95% among 220,000;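 active means confirmed in a dose series; inconclusive means inhibition above 80% but not taken into the dose series; inactive means below 80% or under 30% at every dose of the series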;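 further: bacteria incubated seven days before Alamar blue readout; 0% = bacteria only wells and 100% = bacteria with antibiotic wells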
Arbovirus inh: antivirals against arbovirus infection, primary screen, cell-based, full library, 10K replicate subset; arbovirus infection cell-based antiviral screen; hit rate 0.37% among 200,000; inhibition, % at 10 µM;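 active means inhibition from about 30%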;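 further: bluetongue infection of BSR cells; cell survival read as ATP light after 72 h; 0% = infected wells without compound and 100% = uninfected wells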
YopH PTP inh: YopH tyrosine phosphatase inhibitors, primary screen, biochemical, fluorescence Ex485/Em525 | YopH tyrosine phosphatase [Yersinia enterocolitica] | inhibition, %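 (about 10 µM by stock and volumes)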 | AID 898, 2007 | hit rate 0.16% among 140,000;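 active means inhibition of 50% or more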;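 further: controls were vehicle for no effect and minimum signal wells for full effect; inactives centre near -20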
Mtb betalactam: beta-lactam sensitization of Mtb H37Rv, H37Rv; M. tuberculosis H37Rv growth with meropenem, percent inhibition; hits of this screen are not shown here; hit rate 0.27% among 330,000; inhibition, % at 25 µM;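 active means about 74% or more and at least 40 points above the plate without the antibiotic, then above 30% in a dose series; inconclusive means first-round hits that could not be retested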;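 further: growth measured after seven days incubation then overnight dye step; 0% = bacteria only wells and 100% = bacteria with antibiotic; twin plates without the antibiotic show which effects depend on it; some results filed as inactive read as strong as hits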
RecA intein inh: Mtb RecA intein splicing inhibitors, primary screen, biochemical, fluorescence, HTS; hit rate 0.75% among 290,000; inhibition, %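 (about 9 µM by stock and volumes)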; cell-free RecA intein splicing; in the data active means inhibition above about 30%; inconclusive means no clear call, values can overlap the other calls;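 further: 0% = vehicle wells and 100% = reference inhibitor control wells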
Target sequence (P9WHJ3 whole entry, looked up): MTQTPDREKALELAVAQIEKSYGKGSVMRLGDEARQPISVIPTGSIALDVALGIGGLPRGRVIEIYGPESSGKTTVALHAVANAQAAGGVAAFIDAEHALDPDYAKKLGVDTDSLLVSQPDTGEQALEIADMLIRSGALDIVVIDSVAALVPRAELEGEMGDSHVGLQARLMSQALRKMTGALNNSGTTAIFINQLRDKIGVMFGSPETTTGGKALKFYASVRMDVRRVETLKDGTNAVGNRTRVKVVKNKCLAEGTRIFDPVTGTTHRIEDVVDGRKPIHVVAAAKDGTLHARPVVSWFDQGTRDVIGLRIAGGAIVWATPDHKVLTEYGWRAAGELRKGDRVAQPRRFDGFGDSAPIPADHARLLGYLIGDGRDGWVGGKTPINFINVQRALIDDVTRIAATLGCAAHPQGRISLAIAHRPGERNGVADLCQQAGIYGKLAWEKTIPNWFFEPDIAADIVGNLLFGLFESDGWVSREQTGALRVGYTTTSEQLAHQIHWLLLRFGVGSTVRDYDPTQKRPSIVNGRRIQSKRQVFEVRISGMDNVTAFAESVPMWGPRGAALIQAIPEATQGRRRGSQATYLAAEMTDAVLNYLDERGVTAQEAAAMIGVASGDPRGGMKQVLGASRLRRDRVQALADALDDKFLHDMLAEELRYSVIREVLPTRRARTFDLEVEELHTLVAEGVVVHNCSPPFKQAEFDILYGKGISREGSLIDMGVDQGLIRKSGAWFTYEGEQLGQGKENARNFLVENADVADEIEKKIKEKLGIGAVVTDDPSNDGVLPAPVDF
Arbovirus inh repeat: also measured in Arbovirus inh; calls as there; inhibition, %; measured here: 10K subset replicate screen; many hits read low in the repeat;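 first of two repeat runs on a subset; 0% = infected and 100% = uninfected wells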
* hit, by the source's call; ? = inconclusive; · = no result given. Only part of the results is shown; count on the stated rates, not on these rows.

SMILES | Mtb H37Rv | Arbovirus inh | YopH PTP inh | Mtb betalactam | RecA intein inh | others
O=C(NCc1ccccc1F)C1CCCN1C(=O)NCc1ccccc1 (stereo unspecified) | -14% | 1 | -18 | -5 | -0.6
CCOCCCNC(=O)CCc1ccc(S(=O)(=O)Nc2ccc(C)cc2)cc1 | 6% | -1 | · | 1 | 3.2
NC(=O)CC[C@H](NC(=O)c1ccc(F)cc1)C(=O)OCC(=O)Nc1c(F)c(F)c(F)c(F)c1F | 0% | 0 | -29 | 2 | 2.1
Cn1c2c(c(=O)n(C)c1=O)CN(Cc1ccco1)CN2 | -5% | 17 | -12 | -10 | 2.3 | Arbovirus inh repeat=2
COc1ccccc1N1CCN(C(=O)Cn2ncc3c([nH]c4ccccc43)c2=O)CC1 | · | · | · | 4 | -1.4
COc1cccc(-c2nc(CS(=O)(=O)CC(=O)Nc3ccccc3Cl)c(C)o2)c1 | · | · | · | -7 | -0.9
O=C(CSc1nc2ccccc2o1)Nc1ccccc1N1CCOCC1 | 0% | -4 | -10 | 1 | 6.0
CC(C)CN(C(=O)COC(=O)CCc1nc2ccccc2s1)c1c(N)n(Cc2ccccc2)c(=O)[nH]c1=O | · | · | · | -4 | -0.2
CCc1nc(SCC(=O)Nc2ccccc2)c2c(=O)n(C)c(=O)n(C)c2n1 | · | · | · | -5 | -0.2
Cc1ccc(OCc2ccc(C(=O)N3CCOCC3)cc2)cc1C | 7% | 5 | -11 | 0 | 3.7
Oc1ccc(/C=N/n2cnn(Cc3ccccc3Cl)c2=S)c(O)c1 | 4% | -8 | -23 | -7 | 0.2
COc1cc(NC(=O)CCN2CC(C)OC(C)C2)cc(OC)c1 (stereo unspecified) | · | · | · | 2 | 0.8
CC1(C(=O)NCc2cccnc2)CCC(=O)N1CCc1ccccc1 (stereo unspecified) | 3% | 0 | -7 | -5 | -1.1 | Arbovirus inh repeat=2
COc1cccc(-c2cc(C(=O)N3CCN(Cc4ccccc4)CC3)no2)c1 | 0% | -3 | -16 | 50 | 5.8
COc1ccc(/C=C/C(=O)NC(=S)NNC(=O)c2cccnc2)cc1OC | -13% | -13 | -31 | 0 | -4.1
Cc1ccnc(-n2c(C)cc(C=C3C(=O)N(C)C(=S)N(C)C3=O)c2C)c1 | 7% | 7 | -46 | 84 | -1.4
CCCCCC(=O)Nc1ccc(Cc2ccncc2)cc1 | 67% | 2 | -19 | 78 | -0.5
CCNS(=O)(=O)c1ccc(CCC(=O)NCCc2ccc(OC)cc2)cc1 | 8% | 6 | · | -3 | 1.4
COC(=O)c1ccc(CSc2n[nH]c(=S)s2)o1 | -4% | 0 | -30 | -3 | -0.8
CCC(C)(C)NC(=O)C(c1ccc(C)o1)N(Cc1ccc2c(c1)OCO2)C(=O)c1snc(C(N)=O)c1N (stereo unspecified) | · | · | · | 2 | -5.5
COc1ccc(N2CCN(C(=O)C3CCN(S(=O)(=O)c4ccc(C)cc4)CC3)CC2)cc1 | 6% | -4 | · | -1 | -2.8
CSc1ncccc1C(=O)OCC(=O)N(C)C1CCS(=O)(=O)C1 (stereo unspecified) | -6% | -1 | -16 | -1 | -0.6
CCN(CC(=O)Nc1ccc(OC)cc1)C(=O)c1cc2c(s1)CCCCC2 | · | · | · | -8 | 6.3
CCCn1c(-c2ccc[nH]c2=O)nc2cc(C)c(C)cc21 | -2% | -1 | · | -2 | -2.9
CCOc1cc(N2CCOCC2)c(OCC)cc1NC(=O)[C@H](C)NC(=O)c1ccco1 | · | · | · | -11 | -3.3

Remaining list, next part
SMILES | Mtb H37Rv | Arbovirus inh | YopH PTP inh | Mtb betalactam | RecA intein inh | others
CC12CC3CC(C)(C1)CC(C(=O)NNC(=O)c1ccncc1)(C3)C2 | · | · | · | -4 | -0.3
CCOCC(=O)Nc1c(C(=O)OCC)oc2ccccc12 | 7% | -8 | 1 | 6 | -1.6
COc1ccc(CCN2C(=O)N(c3ccc(OC)cc3)C(=O)C2CC(=O)Nc2ccc(OC)cc2)cc1 (stereo unspecified) | 14% | · | · | -1 | -3.6
O=C(c1ccc([N+](=O)[O-])o1)N1CCN(Cc2ccccc2)CC1 | · | · | · | -2 | -7.3
Cc1ccc(C(C)n2cc(C(=O)NCc3ccncc3)nn2)cc1 (stereo unspecified) | -10% | -3 | -11 | 30 | -0.3
CSc1ccccc1NC(=S)Nc1cc(C)cc(C)c1 | 12% | -12 | -4 | 12 | 2.1
Cc1c(Cl)cccc1NC(=S)NCCN1CCOCC1 | -4% | 6 | -11 | -2 | -3.3
CCOCCN(C(=O)c1ccccc1Cl)c1ccccc1 | -4% | · | · | -6 | 5.5
Cc1cc(C)c(C)c(SCC(=O)Nc2oc(C)c3c(C)n[nH]c(=O)c23)c1C | · | · | · | 0 | 1.9
O=C(NC1CCCc2c1cnn2-c1cc(F)cc(F)c1)c1ccc[n+]([O-])c1 (stereo unspecified) | · | · | · | 6 | -0.8
O=[N+]([O-])c1cccc(C(=S)N2CCN(c3ccc(F)cc3)CC2)c1 | 2% | -12 | · | -6 | 0.7
CC(=O)Nc1ccc(S(=O)(=O)Nc2nc3ccccc3nc2Cl)cc1 | · | · | · | 1 | -5.1
COCCCn1c(SCC(=O)NC2CCCCC2)nc2ccccc2c1=O | · | · | · | 0 | 1.8
CCCCCC/C(=N/O)c1ccccn1 | -4% | -38 | -3 | -3 | -0.7
Cc1ccc(C2CC2c2n[nH]c(=S)n2-c2cccc(C)c2)cc1 (stereo unspecified) | -7% | -5 | · | -5 | 9.9
CCOC(=O)C1CCCN(C2CCN(Cc3nc(Cc4ccccc4)no3)CC2)C1 (stereo unspecified) | -3% | 6 | · | 5 | -2.6
COc1cc(-c2csc(NC3CCCCC3)n2)cc(OC)c1OC | · | · | · | 0 | 1.5
CC1=NNC(=O)c2ccccc2O1 | -4% | 1 | · | -3 | 0.1
CC(Oc1ccccc1)C(=O)OCC(=O)NC(=O)NCc1ccco1 (stereo unspecified) | -5% | 4 | -38 | -3 | 3.9 | Arbovirus inh repeat=0
Fc1cnc(N2CCOCC2)nc1N1CCOCC1 | -14% | 3 | · | 4 | -1.8
Cc1ccc(C(=O)N2CCNC(=O)C2CC(=O)Nc2ccc(F)cc2)cc1C (stereo unspecified) | · | · | · | ? | 2.0
Cc1cc(C)c2nc(N3CCCC(C(=O)N4CCC(C(N)=O)CC4)C3)sc2c1 (stereo unspecified) | 1% | -9 | -9 | 3 | 1.1
Cc1csc(N2CCN(c3cc4c(cc3Cl)nc(-c3ccncc3)n4CCCN3CCCC3)CC2)n1 | · | · | · | 70 | 4.4
O=C(CCS(=O)(=O)Cc1ccccc1)Nc1nnc(C(F)(F)F)s1 | · | · | · | 3 | -2.8
Nc1ccn(-c2ccccc2)c(=O)c1 | -4% | 7 | -41 | -9 | -0.8

Other structures:
SMILES | Mtb H37Rv | Arbovirus inh | YopH PTP inh | Mtb betalactam | RecA intein inh | others
COc1ccc(C(=O)C2CCN(S(=O)(=O)c3ccc4c(c3)OCCO4)CC2)cc1 | -4% | 3 | -40 | -12 | 0.5
C=CCSc1nc2ccccc2n2cnnc12 | · | · | · | 4 | -0.3
Cc1c(-c2ccc(Cl)cc2)[n+](=O)c(-c2ccccc2)cn1[O-] | -3% | · | · | -4 | ·
CCCCC(CC)CNC(=O)CCS(=O)(=O)c1cccc2nsnc12 (stereo unspecified) | -4% | -3 | -16 | ? | 0.2 | Arbovirus inh repeat=-2
CC1CCN(Cc2ccc(NC(=O)CC3Oc4ccccc4NC3=O)cc2)CC1 (stereo unspecified) | -10% | -1 | -28 | -2 | ·
Cc1cc(C)n(-c2ccc3nncn3n2)n1 | -4% | 3 | · | 0 | 3.7
CCn1c(-c2csc(C(C)C)c2)n[nH]c1=S | -2% | 7 | -17 | -1 | 7.8
CN(C)c1nc(N)nc(CSc2nnnn2-c2ccccc2)n1 | -9% | 6 | -14 | -1 | -1.7
CN(C(=O)c1ccc(C#N)cc1)c1nnc(-c2ccccn2)s1 | 6% | -3 | 37 | · | 0.6
O=C(CNc1ccc(Cl)cc1)c1ccc(Br)cc1 | 0% | -16 | · | 1 | -0.5
Cc1c(-c2cccc(Cl)c2)nc2ccccc2c1C(=O)OC/C(O)=C(\C#N)c1nc2ccccc2[nH]1 | 77% | -27 | · | 49 | -8.1
COc1ccc2[nH]c(=O)c(COC(=O)c3ccco3)cc2c1 | · | 5 | -35 | -5 | -2.0
O=S(=O)(Nc1nnc(C2CC2)s1)c1ccccc1 | · | · | · | -3 | -1.6
O=C(Nc1ncc(Cc2ccc(SC(F)F)cc2)s1)c1ccc(OC(F)F)cc1 | 3% | -23 | -32 | -3 | -0.5
CC(C)(C)n1nc2c(c1NC(=O)c1ccc(Br)o1)CS(=O)C2 (stereo unspecified) | -5% | -1 | 13 | -4 | -0.4
Cc1cc(-c2nnc(SCC(=O)Nc3c(C)cccc3C)n2N)n[nH]1 | · | · | · | -2 | -0.8
CCOc1cc(CN2CCOCC2)cc(C(C)=O)c1 | -5% | -1 | -48 | 3 | -1.1
COc1ccc(N(CC(=O)N/N=C/c2ccc(OC3CSC3)cc2)S(=O)(=O)c2ccccc2)cc1 | ? | -22 | -31 | 98 | -0.4
CCOC(=O)c1ccc(NC(=O)CSc2nc3c(c(=O)n2CC)SC(C)C3)cc1 (stereo unspecified) | 7% | 25 | -31 | 0 | 6.7 | Arbovirus inh repeat=5
Cc1c(C(=O)OCC(=O)Nc2ccc(C(N)=O)cc2)cccc1[N+](=O)[O-] | 2% | 11 | · | 4 | -3.1
Nc1nc(NC(=O)c2cccnc2)nn1-c1ccccc1 | -2% | 4 | -54 | -16 | -3.6
Cc1ccc(C2CC(=O)NC(SCC(N)=O)=C2C#N)s1 (stereo unspecified) | 7% | 2 | · | 4 | -1.4
CC(C)NC(=O)c1ccccc1NC(=O)CCS(=O)(=O)Cc1ccccc1 | -11% | 1 | 7 | -11 | -2.2
Cc1nc(SCC(O)CO)c([N+](=O)[O-])[nH]1 (stereo unspecified) | 4% | -2 | -9 | -9 | -0.7
Cn1c(SCC(=O)c2ccccc2)nnc1-c1cccc(N)c1 | 2% | 2 | 5 | -9 | 1.5

Additional results follow:
SMILES | Mtb H37Rv | Arbovirus inh | YopH PTP inh | Mtb betalactam | RecA intein inh | others
Cc1ccc(SCC(=O)NCCN2C(=O)CSC2=O)c(C)c1 | -9% | 6 | 5 | -5 | 0.4 | Arbovirus inh repeat=-3
COc1ccc(C2C/C(=N\O)C(C)(C)O2)cc1 (stereo unspecified) | -13% | -2 | -19 | 2 | -1.5 | Arbovirus inh repeat=-1
CCC1=NN(C(=O)c2cccnc2)C(O)(C(F)(F)F)C1 (stereo unspecified) | 2% | 5 | -20 | 4 | -0.2
Cc1ccc(-n2c(N)c(-c3nc4ccccc4n3C)sc2=S)cc1 | -3% | -6 | -24 | -2 | -4.1
O=C(NC1CCOc2ccccc21)c1ccccn1 (stereo unspecified) | · | · | · | -4 | 1.6
COc1cc(C(=O)N2CCN(C(=O)CC(C)C)CC2)cc(OC)c1OC | -11% | 12 | -16 | 1 | -1.2
Cc1ccc(Nc2nc(N)nc(CN3CCN(Cc4ccc5c(c4)OCO5)CC3)n2)cc1Cl | 7% | -44 | -35 | 1 | 0.6
COc1ccc(CN2CCC(C(N)=O)CC2)cc1OCc1ccccc1 | · | · | · | 8 | -2.6
C=CCn1c(SCC(=O)Nc2cc(C)on2)nc2sc3c(c2c1=O)CCCC3 | · | 5 | -5 | 3 | ·

Fetched one by one from the list above, 2 records:
SMILES | Mtb H37Rv | Arbovirus inh | YopH PTP inh | Mtb betalactam | RecA intein inh | others
Cc1ccc(SCC(=O)NCCN2C(=O)CSC2=O)c(C)c1 | -9% | 6 | 5 | -5 | 0.4 | Arbovirus inh repeat=-3
C=CCn1c(SCC(=O)Nc2cc(C)on2)nc2sc3c(c2c1=O)CCCC3 | · | 5 | -5 | 3 | ·

No new results follow: entries from further up.
SMILES | Mtb H37Rv | Arbovirus inh | YopH PTP inh | Mtb betalactam | RecA intein inh | others
Cc1ccc(SCC(=O)NCCN2C(=O)CSC2=O)c(C)c1 | -9% | 6 | 5 | -5 | 0.4 | Arbovirus inh repeat=-3
COc1ccc(C2C/C(=N\O)C(C)(C)O2)cc1 (stereo unspecified) | -13% | -2 | -19 | 2 | -1.5 | Arbovirus inh repeat=-1
CCC1=NN(C(=O)c2cccnc2)C(O)(C(F)(F)F)C1 (stereo unspecified) | 2% | 5 | -20 | 4 | -0.2
Cc1ccc(-n2c(N)c(-c3nc4ccccc4n3C)sc2=S)cc1 | -3% | -6 | -24 | -2 | -4.1
O=C(NC1CCOc2ccccc21)c1ccccn1 (stereo unspecified) | · | · | · | -4 | 1.6
COc1cc(C(=O)N2CCN(C(=O)CC(C)C)CC2)cc(OC)c1OC | -11% | 12 | -16 | 1 | -1.2
